# High-throughput results deposited in PubChem by Johns Hopkins Ion Channel Center.
# KCNQ2 inh = KCNQ2 potassium channel inhibitors, primary screen, cell-based, CHO-K1, FluxOR thallium flux, B-score (AID 2156) | Potassium voltage-gated channel subfamily KQT member 2 (Rattus norvegicus), O88943 | 20 min; hits give low values; only compounds with negative scores are shown here; some inactives read as strong as hits | B-score at 10 µM | actives 1.1% (n = 310,000);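 active means fluorescence ratio B-score at most minus 3 library SDs, with starting brightness B-score within 2 library SDs, cut at about -5.5 in these data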
# Target sequence (O88943 whole entry, looked up): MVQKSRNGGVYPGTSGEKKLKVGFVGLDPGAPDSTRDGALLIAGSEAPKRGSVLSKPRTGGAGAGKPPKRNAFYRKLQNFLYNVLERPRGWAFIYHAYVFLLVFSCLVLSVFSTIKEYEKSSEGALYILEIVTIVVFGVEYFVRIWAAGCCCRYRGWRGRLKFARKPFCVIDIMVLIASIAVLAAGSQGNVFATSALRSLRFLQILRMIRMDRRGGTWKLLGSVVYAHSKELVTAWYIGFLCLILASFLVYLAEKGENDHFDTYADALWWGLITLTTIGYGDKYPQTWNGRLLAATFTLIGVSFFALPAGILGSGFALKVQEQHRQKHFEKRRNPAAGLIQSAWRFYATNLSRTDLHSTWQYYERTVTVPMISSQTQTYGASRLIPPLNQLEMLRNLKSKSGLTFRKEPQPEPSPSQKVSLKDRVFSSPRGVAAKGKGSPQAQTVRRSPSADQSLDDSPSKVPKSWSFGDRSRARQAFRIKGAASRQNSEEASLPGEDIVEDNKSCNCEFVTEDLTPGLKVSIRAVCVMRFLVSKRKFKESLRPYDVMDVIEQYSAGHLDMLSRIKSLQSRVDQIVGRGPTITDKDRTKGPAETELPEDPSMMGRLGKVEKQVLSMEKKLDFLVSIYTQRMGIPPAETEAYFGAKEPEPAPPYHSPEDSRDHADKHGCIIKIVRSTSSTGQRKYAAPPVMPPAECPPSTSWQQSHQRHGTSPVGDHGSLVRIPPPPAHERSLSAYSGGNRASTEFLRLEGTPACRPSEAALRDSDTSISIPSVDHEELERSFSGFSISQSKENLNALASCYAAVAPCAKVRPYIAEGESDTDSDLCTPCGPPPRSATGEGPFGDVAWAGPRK
# KCNQ2 inh baseline = second read-out of KCNQ2 inh, no call of its own (marks repeat the call); B-score; measured here: initial fluorescence intensity artifact check;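 brightness before thallium and not channel activity; 0 = typical well and far values either way flag optical interference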
# The depositor's hits bear a star; i = inactive. Not all compounds are listed; the hit share may differ from the screen's.
SMILES,KCNQ2 inh,KCNQ2 inh baseline
CN(C(=O)COC(=O)c1nc(-c2ccccc2)n(-c2ccccc2)n1)C1CCS(=O)(=O)C1 (stereo not drawn),i,-1.2
Cc1ccc(NC(=O)C(=O)c2c(-c3ccccc3)cc3ccccn23)cc1S(=O)(=O)N1CCOCC1,i,-0.86
COc1cc(OC)c(N(C)C(=O)c2cn(C)c(=O)c3cc(OC)c(OC)cc23)cc1Cl,i,-0.49
C=CCn1c(COc2ccc(Cl)cc2)nnc1SCC(=O)NCC(=O)OCC,i,0.15
CCCn1c(=O)c(F)cn(Cc2ccc(OC)c([N+](=O)[O-])c2)c1=O,i,0.88
CCN(CC)CCNC(=O)C1(O)c2cc(Br)ccc2NC(=O)N1c1ccc(Cl)cc1 (stereo not drawn),i,0.21
CCOC(=O)C1C(=O)CC(C)(O)C(C(=O)OCC)C1c1cccs1 (stereo not drawn),i,-0.02
CN(C)/C=C1\SC(=S)N(c2ccc(Br)cc2)C1=O,i,0.98
O=C(c1cc(S(=O)(=O)N2CCOCC2)ccc1Cl)N1CCN(c2ccccn2)CC1,i,1
COc1cc(CNCCO)ccc1OC1CCCC1,i,1.2
Cc1ccc(-n2nnnc2CCl)cc1,i,-1.8
COC(=O)C(NNc1ccccc1)(NC(=O)c1ccccc1F)C(F)(F)F (stereo not drawn),i,0.83
O=C(NCc1ccco1)c1cccc(-c2nnc(-c3ccccc3)o2)c1,i,1.3
COc1ccccc1CCNC(=O)C1(C)CC1(Cl)Cl (stereo not drawn),i,1.2
CCOC(=O)c1c(C)[nH]c(C(=O)N/N=C\c2ccccc2O)c1C,i,0.75
O=C(Nc1ncn[nH]1)c1cc([N+](=O)[O-])ccc1Cl,i,1.3
O=C(CSc1nccn1-c1ncc(C(F)(F)F)cc1Cl)c1ccc(Br)cc1,i,-1.7
CN(Cc1ccc(Cl)cc1Cl)C(=O)CNC(=O)c1ccc2c(c1)OCO2,i,0.3
Cc1ccc(S(=O)(=O)N2CCOC2CNC(=O)C(=O)NCc2cccnc2)cc1 (stereo not drawn),i,-0.7
CC(C)COC(=O)C1C2C=CC3(CN(C(C)c4ccc(Br)cc4)C(=O)C13)O2 (stereo not drawn),i,-0.57

# A second format for part of the listing above.
# Value order: KCNQ2 inh	KCNQ2 inh baseline
CCN(CC)CCNC(=O)C1(O)c2cc(Br)ccc2NC(=O)N1c1ccc(Cl)cc1 (stereo not drawn)
    i	0.21
CCOC(=O)C1C(=O)CC(C)(O)C(C(=O)OCC)C1c1cccs1 (stereo not drawn)
    i	-0.02
CN(C)/C=C1\SC(=S)N(c2ccc(Br)cc2)C1=O
    i	0.98
O=C(c1cc(S(=O)(=O)N2CCOCC2)ccc1Cl)N1CCN(c2ccccn2)CC1
    i	1
COc1cc(CNCCO)ccc1OC1CCCC1
    i	1.2
Cc1ccc(-n2nnnc2CCl)cc1
    i	-1.8
COC(=O)C(NNc1ccccc1)(NC(=O)c1ccccc1F)C(F)(F)F (stereo not drawn)
    i	0.83
O=C(NCc1ccco1)c1cccc(-c2nnc(-c3ccccc3)o2)c1
    i	1.3
COc1ccccc1CCNC(=O)C1(C)CC1(Cl)Cl (stereo not drawn)
    i	1.2
CCOC(=O)c1c(C)[nH]c(C(=O)N/N=C\c2ccccc2O)c1C
    i	0.75
O=C(Nc1ncn[nH]1)c1cc([N+](=O)[O-])ccc1Cl
    i	1.3
O=C(CSc1nccn1-c1ncc(C(F)(F)F)cc1Cl)c1ccc(Br)cc1
    i	-1.7
CN(Cc1ccc(Cl)cc1Cl)C(=O)CNC(=O)c1ccc2c(c1)OCO2
    i	0.3
Cc1ccc(S(=O)(=O)N2CCOC2CNC(=O)C(=O)NCc2cccnc2)cc1 (stereo not drawn)
    i	-0.7

# (continued)
SMILES,KCNQ2 inh,KCNQ2 inh baseline
COc1ccc(N2Cc3ccccc3C2=O)cc1,i,0.91
COc1cccc(-c2cc(C(=O)Nc3cccnc3)no2)c1,i,-0.01
O=C(Cn1c(SCc2ccccc2)nc2ccccc21)N1CCOCC1,i,2
O=C(/C=C/c1cc[n+](CC(=O)c2ccc3cccc4c3c2CC4)cc1)c1ccc2cccc3c2c1CC3,i,0.83
c1ccc(-c2ccc(Oc3cc(N4CCOCC4)nc(-c4ccccc4)n3)cc2)cc1,i,2.4
COC(=O)c1cc2ccsc2n1CC(=O)N(C)C1CCCCC1,i,0.01
COc1ccc(-c2nc(NC(=O)C3CC(=O)N(c4ccc5c(c4)OCCO5)C3)sc2C)cc1 (stereo not drawn),i,0.84
O=C(NCCN1CCN(c2ccccc2)CC1)c1cccn2c(=O)c3cc(Cl)ccc3nc12,i,-0.27
COc1ccccc1NS(=O)(=O)c1cc([N+](=O)[O-])ccc1N/N=C/c1c(C)[nH]c2ccccc12,i,-0.17
CCN1CCN(C(=O)c2ccc3c(=O)n(CCc4ccccc4)c(=O)[nH]c3c2)CC1,i,-0.02
O=C(O)CN1C(=O)S/C(=C\c2cccnc2)C1=O,i,0.13
CCOC(=O)c1[nH]c2ccc(F)cc2c1NC(=O)C1=COCCO1,i,-0.22
CSCc1cc(N2CCOCC2)nc(SCc2ccc(Cl)c(Cl)c2)n1,i,-0.14
O=C(COc1ccc(S(=O)(=O)NC2CCCCC2)cc1Cl)Nc1ccc2c(c1)OCO2,i,0.02
Cc1cc(=O)oc2cc(OC(C)C(=O)O)c(Cl)cc12 (stereo not drawn),i,0.1
CC(C)C(=O)Nc1ccc(C(=O)NNC(=O)CCc2ccccc2)cc1,i,0.04
O=C1C(Cl)=C(N2CCOCC2)C(=O)N1CCc1ccccc1,i,1.1
Cc1ccccc1N1CCN(c2ncnc3c2cnn3Cc2ccc(Cl)cc2)CC1,-5.7*,0.02*
CC(C)c1nc2n[nH]c(N)c2c2c1CCC2,i,-0.86
CC(C)Cc1ccc(CN2CCCC(NC(=O)c3nn(C)c(=O)c4ccccc34)C2)cc1 (stereo not drawn),-7.8*,-0.35*
CCOC(=O)C1(C)NC(c2ccc(OC)cc2OC)C2C(=O)N(CC)C(=O)C21 (stereo not drawn),i,1.2
Cc1cc(C(=O)C(C)Sc2cccc[n+]2[O-])c(C)n1-c1ccc(Cl)cc1 (stereo not drawn),i,0.31
COC(=O)CC1COc2ccccc2N1C(=O)c1cc(OC)c(OC)c(OC)c1 (stereo not drawn),i,-1.6
COc1ccc(/C=C(\C#N)C(=O)NC(C)c2ccccc2)cc1O (stereo not drawn),i,1.9
COc1ccc(OC)c(NC(=O)NCc2cccnc2)c1,i,-0.4
CC(=O)Nc1ccc(NC(=O)CSc2nnc3c4ccccc4n(C)c3n2)cc1,i,-0.95
Cc1c(-c2ccco2)[n+](=O)c2c(n1[O-])CCC2,i,0.04
COc1cc2c(cc1OC)C1=NC(=O)CN1C(SCc1ccccc1C)=N2,i,-0.38
O=C(NCCc1ccccc1)c1cc(=O)c2ccccc2o1,i,1.5
COc1ccc(NC(=O)C2C3C=CC(C3)C2C(=O)NCc2ccco2)cc1 (stereo not drawn),i,-0.47
O=C(NCCOc1ccccc1F)c1cc(F)c(F)cc1Cl,i,0.51
COc1ccc(Cn2nnnc2C(c2cccs2)N2CCCCCC2)cc1 (stereo not drawn),i,0.02
O=C(NCCCCc1ccccc1)C1CC(c2ccccc2C(F)(F)F)=NO1 (stereo not drawn),i,-0.28
O=C(NCCCN1CCOCC1)c1ccc2c(c1)N(Cc1cccc(Cl)c1)C(=O)CS2,i,0.03
O=C(CC1C(=O)NCCN1CC(c1ccccc1)c1ccccc1)NC1CC1 (stereo not drawn),i,0.03
CCCOC(=O)c1ccc(Oc2c(-c3ccc(OCC)cc3O)n[nH]c2C)cc1,i,-0.21
CC(=O)n1c(C=Nc2ccccc2)c(O)c2ccccc21,i,1.4
COC(=O)c1ccc(NC(=S)NNC(=O)CC(C)C)cc1,i,-0.9
Fc1cccc(F)c1/C=C/c1ccc2ccccc2n1,i,0.6
CN(C)c1ccc(N=c2sc3ccccc3n2C)cc1,i,-1.4
COc1ccc(CC2(CO)CCN(Cc3cnn(-c4ccccc4)c3)CC2)cc1,i,0.67
O=C(Nc1nnc(SCC(=O)N2CCOCC2)s1)c1ccccc1Cl,i,-0.91
COc1ccc(Cc2noc(CN(C)Cc3cccc(-n4cccn4)c3)n2)cc1OC,i,-1.5
Cc1cccc(NS(=O)(=O)c2ccc3c(c2)NC(=O)CO3)c1C,i,1.1
CC(C)c1ccc(C(=O)CSc2ncn[nH]2)cc1,i,-1.4
COc1ccccc1Nc1nc(C2(C)CCC(=O)O2)cs1 (stereo not drawn),i,1.9
CCOc1ccc(CN2CCN(C3CCSCC3)CC2CCO)cc1 (stereo not drawn),i,2.1
COc1cc(-c2cc(C(=O)Nc3ccc(N4CCOCC4)cc3)c3ccccc3n2)cc(OC)c1OC,i,-1.2
O=C(NC1CCCCC1)C(c1ccncc1)N(Cc1ccc2c(c1)OCO2)C(=O)C(F)(F)F (stereo not drawn),i,-0.69
O=C(CSc1cnc2ccccc2n1)c1ccc(F)cc1,i,4.2
COc1ccc(C(=O)NNC(=S)NC(=O)c2cccnc2)cc1,i,0.15
CCCOc1ccc(NC(=O)CC2C(=O)N(C)C(=S)N2Cc2cccs2)cc1 (stereo not drawn),i,0.84
COc1cccc(C2=NOC(C(=O)Nc3cc(C)nn3-c3ccccc3)C2)c1OC (stereo not drawn),i,-0.58
CCc1c(C(=O)Nc2cc(C(=O)OC)ccc2C)csc1C,i,-1.7
CC(C)c1c(C(=O)N/N=C/c2ccc3c(c2)OCO3)nnn1-c1nonc1N,i,0.45
CCCC(c1nnnn1Cc1ccc(OC)cc1)N1CCN(c2ccccc2)CC1 (stereo not drawn),i,-2.4
CC(=O)Nc1ccc(S(=O)(=O)N2CCN(c3cc(C)nc4ncnn34)CC2)cc1,i,-0.32
COc1ccc(CCn2c(=N)c(C(=O)NC3CCCCC3)cc3c(=O)n4ccccc4nc32)cc1,i,-0.6
C=CCn1c(=O)c2ccccc2n2c(SCC(=O)c3ccccc3)nnc12,i,1.4
S=C(NCc1ccco1)NC1CCCc2ccccc21 (stereo not drawn),i,-1
# Other structures.
SMILES,KCNQ2 inh,KCNQ2 inh baseline
Cc1ccc(/C=C/C(=O)OCn2nnc3ccccc3c2=O)o1,i,-1.2
COc1n[nH]c(C(=O)Nc2nc3ccccc3s2)c1[N+](=O)[O-],i,-0.01
COc1ccc(Cn2cnc([N+](=O)[O-])c2)cc1[N+](=O)[O-],i,0.09
S=C(Nc1ccc(Br)cc1Cl)Nn1cnnc1,i,-0.55
Cc1cc(C)n(-c2nc3ccccc3nc2N2CCN(S(=O)(=O)c3ccc4ccccc4c3)CC2)n1,-5.9*,0.52*
Cc1ccc(-c2csc3ncnc(N4CCN(Cc5ccccc5)CC4)c23)cc1,i,0.02
O=C1CC(c2ccsc2)c2ccc3ccccc3c2N1 (stereo not drawn),i,0.15
COc1ccc(NS(=O)(=O)c2cc(C(=O)O)ccc2C)cc1,i,-1.9
COc1ccc(C(=O)c2oc3ccccc3c2NC(C)=O)cc1,i,0.03
Cc1ocnc1C(=O)Nc1ccc(Cl)cc1,i,-1.5
COCCCNC(=O)c1c(N)n(-c2ccc(S(N)(=O)=O)cc2)c2nc3ccccc3nc12,i,0.67
CCOc1ccccc1NC(=O)/C(C#N)=C/c1c(C)nn(-c2ccccc2)c1Cl,i,-0.02
CCS(=O)(=O)c1ccc2c(c1)N(S(=O)(=O)c1ccc(OC)cc1)CC(C(=O)O)O2 (stereo not drawn),i,-0.25
O=C(Cn1cnc(S(=O)(=O)N2CCCCC2)c1)Nc1ccc(OC(F)(F)F)cc1,i,0.13
CCc1nn(C(C)C(=O)NCc2cccc(OC)c2)c(=O)c2cc3occc3n12 (stereo not drawn),i,-0.03
Cc1nc2nc(SCC(=O)NCCCN3CCCC3)nn2c(C)c1Cc1ccccc1Cl,i,0.02
C/C(=N\Nc1nc(-c2cc(C)ccc2C)cs1)c1cc2ccccc2oc1=O,i,-0.98
Cc1ccc(S(=O)(=O)n2nc(-n3c(C)ccc3C)c3c(F)cccc32)c2ccccc12,i,0.03
OC(COc1ccc(Br)cc1)CN1CCN(c2ccccc2)CC1 (stereo not drawn),i,-0.24
CC(C)(C)OC(=O)N1CCC[C@H]1c1nnc(SCc2c(Cl)cccc2Cl)o1,i,-0.27
O=C(NC1CCCC1)c1ccc(CS(=O)(=O)c2cccc(C(F)(F)F)c2)o1,i,2.1
CCN(C(=O)c1ccc(S(=O)(=O)N2CCC(C)CC2)cc1)C1CCS(=O)(=O)C1 (stereo not drawn),i,1.9
CCn1c(=O)cc(SCC(=O)Nc2cccc(C)n2)c2ccccc21,i,0.81
COc1cccc(Cn2cnc3c(N)c(C)c(C)cc32)c1,i,1.1
COC(=O)C(C)Sc1ncnc2c1nnn2-c1ccc(F)cc1 (stereo not drawn),i,0.43
Cc1cccc(N2CCN(C(=O)c3ccccc3NC(=O)C3CC=CCC3C(=O)O)CC2)c1 (stereo not drawn),i,2.5
O=C(CNS(=O)(=O)c1ccc2ccccc2c1)OCC(=O)c1ccc(Br)s1,i,1.4
Cc1ccc(C(=O)NC(C)(COc2nonc2C)COc2nonc2C)cc1,i,-1.9
Cc1ccc(S(=O)(=O)c2c(C)cc(C)nc2N2CCCCC2)cc1,i,-3.1
COc1ccc(NC(=O)C2CC(c3ccccc3O)=NO2)cc1OC (stereo not drawn),i,1.7
CC1Cc2nc(SCC(=O)NC3CCCCC3)n(C)c(=O)c2S1 (stereo not drawn),i,0.19
COc1cccc2cc(C(=O)NCCC3=CCCCC3)c(=O)oc12,i,1.5
CCOc1cc(C(=O)OCC(=O)Nc2ncc(Cl)c(C)c2Cl)ccc1OCC(=O)N1CCOCC1,i,-0.01
CCS(=O)(=O)c1ccc(O)c(NC(=O)COc2ccc(Cl)cc2)c1,i,0.09
